Screening data as filed in PubChem BioAssay.
Yeast UUG start – modulators of yeast start codon fidelity, primary screen, whole organism, S. cerevisiae, single point, plate reader; AID 602363, 2012; 350,000 compounds, 0.13% hits; S. cerevisiae UUG-firefly luciferase reporter, luminescence/redox ratio; activity score, % at 18.7 µM;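 active = replicate mean at a twofold rise or more, about +100% in these data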;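 also: firefly luciferase made from a UUG start codon reports start codon fidelity; reporter light over untreated wells divided by growth signal over untreated wells; some hits fall short of that in this replicate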
Env fusion inh – inhibitors of HIV-1 Env-driven cell-cell fusion, primary screen, HeLa-JRFL effector, CEM21 target cells, luciferase | inhibition, % at 12.3 µM | 360,000 compounds, 1.1% hits | AID 651610, 2012;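 active = mean replicate inhibition score of at least 50 and every replicate individually at or above 50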;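 also: 0% = plate neutral controls and 100% = maraviroc near 300 nM; one replicate is shown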
Numbers without * were called inactive; [ ] = remark or other dose. The list is partial, so the mix of outcomes need not match the whole.

The first two compounds, to show the layout:
Under each structure: Yeast UUG start, Env fusion inh
> N#C[C@H]1[C@@H](c2ccc(-c3cccnc3)cc2)[C@@H](CO)N1C(=O)C1CCOCC1
  25, 2[16.7 µM]
> CN(C)c1ccc2c(c1)[C@H]1C[C@H](CC(=O)NCc3ccc(Cl)cc3)O[C@H](CO)[C@H]1O2
  3, 10[16.7 µM]

The listing, repeating the preview:
Under each structure: Yeast UUG start, Env fusion inh
> N#C[C@H]1[C@@H](c2ccc(-c3cccnc3)cc2)[C@@H](CO)N1C(=O)C1CCOCC1
  25, 2[16.7 µM]
> CN(C)c1ccc2c(c1)[C@H]1C[C@H](CC(=O)NCc3ccc(Cl)cc3)O[C@H](CO)[C@H]1O2
  3, 10[16.7 µM]
> O=C(Nc1ccc2c(c1)OCO2)N[C@H]1C=C[C@@H](CC(=O)N2CCN(c3ccccc3)CC2)O[C@@H]1CO
  0, 16[16.7 µM]
> C[C@H](CO)N1C[C@H](C)[C@@H](CN(C)C(=O)c2ccncc2)Oc2cc(C#C[C@@H](C)O)ccc2S1(=O)=O
  4, 8[16.7 µM]
> COc1cccc(-c2cnc3c(c2)C(=O)N([C@H](C)CO)C[C@@H](C)[C@H](CN(C)Cc2ccccc2)O3)c1
  4, -7[16.7 µM]
> CCC(=O)N(C)C[C@@H]1Oc2cc(C#CC(C)(C)O)ccc2S(=O)(=O)N([C@H](C)CO)C[C@H]1C
  16, -13[16.7 µM]
> CC(C)NC(=O)Nc1ccc2c(c1)C(=O)N([C@H](C)CO)C[C@H](C)[C@@H](CN(C)CC1CC1)OCCCC[C@H](C)O2
  -3, -21[16.7 µM]
> C[C@@H]1CN([C@H](C)CO)S(=O)(=O)c2ccc(C#CC3CC3)cc2O[C@H]1CN(C)C(=O)C1CC1
  9, 15[16.7 µM]
> CCCN(C)C[C@H]1OCCCC[C@@H](C)Oc2ccc(NC(=O)CCC(F)(F)F)cc2C(=O)N([C@@H](C)CO)C[C@H]1C
  16, 10[16.7 µM]
> C[C@H]1CCCCO[C@@H](CN(C)Cc2ccc3c(c2)OCO3)[C@@H](C)CN([C@@H](C)CO)C(=O)c2cc(NC(=O)CCC(F)(F)F)ccc2O1
  -3, -20[16.7 µM]
> C[C@H](CO)N1C[C@H](C)[C@@H](CN(C)C(=O)CN2CCOCC2)Oc2ncc(C3=CCCCC3)cc2C1=O
  -13, 7[16.7 µM]
> CS(=O)(=O)Nc1ccc2c(c1)[C@@H]1C[C@@H](CC(=O)NCc3cccc(F)c3)O[C@H](CO)[C@@H]1O2
  -14, 11[16.7 µM]
> C[C@H](CO)N1C[C@H](C)[C@H](CN(C)C(=O)Nc2ccc(C(F)(F)F)cc2)Oc2ccc(NC(=O)Nc3ccc(F)cc3)cc2CC1=O
  -17, -3[16.7 µM]
> Cc1ccc(S(=O)(=O)N(C)C[C@H]2OCCCC[C@@H](C)Oc3ccc(NC(=O)NC(C)C)cc3C(=O)N([C@H](C)CO)C[C@H]2C)cc1
  10, 7[16.7 µM]
> C[C@H](CO)N1C[C@H](C)[C@@H](CN(C)C(=O)CC2CC2)Oc2cc(C3=CCCC3)ccc2S1(=O)=O
  8, -10[16.7 µM]

(cont.)
Under each structure: Yeast UUG start, Env fusion inh
> COc1ccc(S(=O)(=O)Nc2ccc3c(c2)C(=O)N([C@H](C)CO)C[C@@H](C)[C@@H](CN(C)Cc2ccc4c(c2)OCO4)OCCCC[C@H](C)O3)cc1
  11, 17[16.7 µM]
> COCC(=O)N(C)C[C@@H]1Oc2ncc(-c3ccccc3C)cc2C(=O)N([C@H](C)CO)C[C@H]1C
  1, -4[16.7 µM]
> C[C@H]1CCCCO[C@H](CN(C)Cc2ccccc2)[C@@H](C)CN([C@@H](C)CO)C(=O)c2cc(NC(=O)Nc3ccc(F)cc3)ccc2O1
  15, -12[16.7 µM]
> C[C@H](CO)N1C[C@H](C)[C@H](CN(C)CC2CCCCC2)OCCCC[C@H](C)Oc2ccc(NS(=O)(=O)c3ccccc3)cc2C1=O
  22, -16[16.7 µM]
> Cc1ccc(S(=O)(=O)N(C)C[C@H]2OCCCC[C@H](C)Oc3ccc(NC(=O)CCCN(C)C)cc3C(=O)N([C@H](C)CO)C[C@@H]2C)cc1
  -10, -11[16.7 µM]
> C[C@H](CO)N1C[C@H](C)[C@@H](CN(C)C(=O)NC2CCCCC2)Oc2ccc(NC(=O)Nc3ccc(F)cc3)cc2C1=O
  -5, -9[16.7 µM]
> COCC(=O)N1C[C@H](C)[C@@H](OC)CN(C)C(=O)c2cc(NC(=O)NC(C)C)ccc2OC[C@@H]1C
  5, 2[16.7 µM]
> C[C@@H]1CN([C@@H](C)CO)S(=O)(=O)c2ccc(C#Cc3ccccc3F)cc2O[C@@H]1CN(C)C(=O)c1ccc2c(c1)OCO2
  -19, 35[16.7 µM]
> CN1C(=O)c2cc(NC(=O)c3ccccc3)ccc2OC[C@@H]2O[C@@H](CC(=O)NCC3CC3)CC[C@H]21
  6, 8[16.7 µM]
> Cc1noc(C)c1NC(=O)N(C)C[C@@H]1OCCCC[C@H](C)Oc2ccc(NS(=O)(=O)c3ccccc3)cc2C(=O)N([C@@H](C)CO)C[C@@H]1C
  6, -29[16.7 µM]
> CCNC(=O)C[C@@H]1CC[C@@H]2[C@H](COc3ccc(NC(=O)c4cccc(C(F)(F)F)c4)cc3C(=O)N2C)O1
  18, 15[16.7 µM]
> CNC(=O)C[C@@H]1CC[C@H]2[C@@H](COc3ccc(NC(=O)Nc4cccc(Cl)c4)cc3C(=O)N2C)O1
  11, -8[16.7 µM]
> C[C@@H]1CN([C@H](C)CO)C(=O)c2cccc(NS(=O)(=O)c3ccc(F)cc3)c2O[C@@H]1CN(C)CC1CC1
  -1, 8[16.7 µM]
> CCS(=O)(=O)N[C@@H]1CC[C@@H](CC(=O)NCC2CC2)O[C@H]1CO
  -9, -3[16.7 µM]
> Cc1noc(C)c1NC(=O)Nc1cccc2c1O[C@H](CN(C)C(=O)Nc1ccc3c(c1)OCO3)[C@H](C)CN([C@@H](C)CO)C2=O
  1, 2[16.7 µM]

(cont.)
Under each structure: Yeast UUG start, Env fusion inh
> COc1ccc(S(=O)(=O)N(C)C[C@H]2Oc3ccc(NS(=O)(=O)c4ccc(Cl)cc4)cc3CC(=O)N([C@H](C)CO)C[C@H]2C)cc1
  4, -7[16.7 µM]
> COc1cccc(S(=O)(=O)N[C@@H]2CC[C@H](CCNC(=O)Cc3ccncc3)O[C@@H]2CO)c1
  -5, 2[16.7 µM]
> COCC#Cc1cnc2c(c1)C(=O)N([C@H](C)CO)C[C@H](C)[C@H](CN(C)C(=O)Nc1cccc(F)c1)O2
  16, 1[16.7 µM]
> CS(=O)(=O)Nc1ccc2c(c1)[C@H]1C[C@H](CC(=O)NCC(F)(F)F)O[C@@H](CO)[C@H]1O2
  -15, -8[16.7 µM]
> COc1ccc(-c2cnc3c(c2)C(=O)N([C@H](C)CO)C[C@@H](C)[C@H](CN(C)S(C)(=O)=O)O3)cc1
  14, -2[16.7 µM]
> COc1ccc([Si](C)(C)[C@H]2[C@H](CCO)O[C@@]3(C(=O)N(Cc4cccc(N5CCCCC5=O)c4)c4ccccc43)[C@@H]2C)cc1
  -10, -22[16.7 µM]
> CCCC(=O)Nc1ccc2c(c1)OC[C@H](C)N(C(=O)CC1CC1)C[C@@H](C)[C@@H](OC)CN(C)C2=O
  -2, -11[16.7 µM]
> CC(C)[C@@H]1C=C(C(=O)O)O[C@H](OCc2ccc(CO)cc2)C1
  -4, -8[16.7 µM]
> O=C(N[C@@H]1CC[C@H](CCn2cc(-c3cccnc3)nn2)O[C@@H]1CO)c1ccccc1F
  -8, -2[16.7 µM]
> CN1CCN(C(=O)C[C@H]2C[C@@H]3c4cc(NC(=O)c5cccnc5)ccc4O[C@@H]3[C@H](CO)O2)CC1
  -21, 3[16.7 µM]
> C[C@@H]1CN([C@H](C)CO)S(=O)(=O)c2ccc(-c3cncnc3)cc2O[C@@H]1CN(C)Cc1ccccc1
  -4, 3[16.7 µM]
> COc1ccc(NC(=O)N(C)C[C@H]2Oc3c(NS(=O)(=O)c4ccc(OC)cc4)cccc3C(=O)N([C@@H](C)CO)C[C@@H]2C)cc1
  8, -12[16.7 µM]
> C[C@@H]1CN([C@H](C)CO)S(=O)(=O)c2ccc(Br)cc2O[C@H]1CN(C)C
  -6, -3[16.7 µM]
> COCCNC(=O)C[C@@H]1CC[C@@H]2[C@@H](COc3ccc(NC(C)=O)cc3C(=O)N2C)O1
  -10, -9[16.7 µM]
> COC(=O)C(CC#Cc1ccc2c(c1)[C@]1(C(=O)N2)[C@H](c2ccc(O)cc2)N2[C@H](c3ccccc3)[C@H](c3ccccc3)OC(=O)[C@H]2[C@@H]1C(=O)N1CCc2cc(OC)c(OC)cc2C1)C(=O)OC
  3, -13[16.7 µM]

Next section
Under each structure: Yeast UUG start, Env fusion inh
> CCC(=O)Nc1ccc2c(c1)C(=O)N(C)C[C@H](OC)[C@H](C)CN(C(=O)c1cccnc1)[C@@H](C)CO2
  -9, 12[16.7 µM]
> C[C@@H]1CN([C@@H](C)CO)C(=O)Cc2cc(NC(=O)CCN3CCOCC3)ccc2O[C@H]1CN(C)C(=O)NC1CCCCC1
  11, -9[16.7 µM]
> CCCNC(=O)C[C@@H]1CC[C@@H]2[C@@H](COc3ccc(NC(=O)Cc4ccccc4)cc3C(=O)N2C)O1
  12, 3[16.7 µM]
> CCNC(=O)C[C@H]1CC[C@@H]2[C@@H](COc3ccc(NC(=O)NC(C)C)cc3C(=O)N2C)O1
  -6, 2[16.7 µM]
> C/C=C/c1ccc2c(c1)O[C@H](CN(C)C(=O)c1ccncc1)[C@@H](C)CN([C@H](C)CO)S2(=O)=O
  -3, -23[16.7 µM]
> CCNC(=O)C[C@H]1CC[C@H](NC(=O)C2CCOCC2)[C@@H](CO)O1
  -10, 13[16.7 µM]
> C/C=C/c1ccc2c(c1)O[C@H](CN(C)C(=O)NC(C)C)[C@H](C)CN([C@@H](C)CO)S2(=O)=O
  6, 37[16.7 µM]
> C[C@H](CO)N1C[C@H](C)[C@@H](CN(C)S(=O)(=O)c2cn(C)cn2)Oc2ccc(N(C)C)cc2C1=O
  -3, 0[16.7 µM]
> C[C@H](CO)N1C[C@H](C)[C@H](CN(C)C(=O)NC2CCCCC2)Oc2c(NC(=O)C3CC3)cccc2C1=O
  3, -12[16.7 µM]
> O=C(C[C@H]1C[C@H]2c3cc(NC(=O)CC4CC4)ccc3O[C@H]2[C@@H](CO)O1)NCc1ccc2c(c1)OCO2
  7, -38[16.7 µM]
> Cc1noc(C)c1NC(=O)Nc1ccc2c(c1)CC(=O)N([C@H](C)CO)C[C@@H](C)[C@H](CN(C)Cc1ccc3c(c1)OCO3)O2
  2, 2[16.7 µM]
> Cc1ccc(S(=O)(=O)Nc2ccc3c(c2)C(=O)N([C@@H](C)CO)C[C@H](C)[C@@H](CN(C)CC2CCCCC2)OCCCC[C@H](C)O3)cc1
  34, 38[16.7 µM]
> C[C@@H]1CN([C@@H](C)CO)C(=O)CCCn2cc(nn2)CO[C@H]1CN(C)C(=O)Nc1cccc(Oc2ccccn2)c1
  9, -1
> C[C@@H]1CN([C@H](C)CO)C(=O)Cc2cc(NS(=O)(=O)c3cccs3)ccc2O[C@@H]1CN(C)Cc1ccccc1
  -4, 5[16.7 µM]
> C[C@H]1CN([C@@H](C)CO)C(=O)c2cccc(NC(=O)Nc3ccc(F)cc3)c2O[C@H]1CN(C)S(=O)(=O)c1ccc(F)cc1
  6, 25[16.7 µM]

Nothing new here: an excerpt of the list.
Under each structure: Yeast UUG start, Env fusion inh
> Cc1noc(C)c1NC(=O)Nc1ccc2c(c1)CC(=O)N([C@H](C)CO)C[C@@H](C)[C@H](CN(C)Cc1ccc3c(c1)OCO3)O2
  2, 2[16.7 µM]
> Cc1ccc(S(=O)(=O)Nc2ccc3c(c2)C(=O)N([C@@H](C)CO)C[C@H](C)[C@@H](CN(C)CC2CCCCC2)OCCCC[C@H](C)O3)cc1
  34, 38[16.7 µM]
> C[C@@H]1CN([C@@H](C)CO)C(=O)CCCn2cc(nn2)CO[C@H]1CN(C)C(=O)Nc1cccc(Oc2ccccn2)c1
  9, -1
> C[C@@H]1CN([C@H](C)CO)C(=O)Cc2cc(NS(=O)(=O)c3cccs3)ccc2O[C@@H]1CN(C)Cc1ccccc1
  -4, 5[16.7 µM]
> C[C@H]1CN([C@@H](C)CO)C(=O)c2cccc(NC(=O)Nc3ccc(F)cc3)c2O[C@H]1CN(C)S(=O)(=O)c1ccc(F)cc1
  6, 25[16.7 µM]

(next part)
Under each structure: Yeast UUG start, Env fusion inh
> C[C@H](CO)N1C[C@H](C)[C@@H](CN(C)C(=O)Nc2ccc(C(F)(F)F)cc2)Oc2ccc(NC(=O)Nc3ccccc3)cc2CC1=O
  -8, -28[16.7 µM]
> Cc1ccccc1S(=O)(=O)N1C[C@H](O)COC[C@H]2O[C@@H](CC(=O)N3CCN(C)CC3)CC[C@@H]21
  0, 11[16.7 µM]
> Cc1noc(C)c1S(=O)(=O)Nc1cccc2c1O[C@H](CN(C)CC1CCCCC1)[C@H](C)CN([C@H](C)CO)C2=O
  11, -27[16.7 µM]
> COC(=O)C(CC#Cc1ccc2c(c1)[C@]1(C(=O)N2)[C@H](c2ccc(OCCO)cc2)N2[C@H](c3ccccc3)[C@H](c3ccccc3)OC(=O)[C@H]2[C@@H]1C(=O)NC[C@H](O)c1ccccc1)C(=O)OC
  0, -9[16.7 µM]
> COCCOC(=O)N1C(=O)[C@@]2(c3cc(C#CC4(O)CCCCCC4)ccc31)[C@H](C(=O)N1CCN(c3ncccn3)CC1)[C@H]1C(=O)O[C@H](c3ccccc3)[C@H](c3ccccc3)N1[C@@H]2c1ccccc1OCCO
  13, -4[16.7 µM]
